G9a inh – qHTS Assay for Inhibitors of Histone Lysine Methyltransferase G9a; G9a H3K9 monomethylation, AlphaScreen, 2 h; Histone-lysine N-methyltransferase EHMT2 (Homo sapiens), Q96KQ7; AID 504332, 2011; 350,000 compounds, 8.8% hits; Potency, µM (titrated, usually from 102 µM), for inactives: top-dose activity, negative = inhibition, actives largely listed as inhibitors; further: potency means the concentration at half of the fitted maximal effect; on the % scale 0 is the no-effect control and ±100 the full control effect; nearly all actives have a fitted effect of over 75% in size
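G9a (20 nM) preincubated 15 min RT with compounds, then 500 nM biotinylated H3K9 peptide and 20 uM SAM added; 2 h RT reaction. Monomethyl-H3K9 product detected by AlphaScreen with anti-H3K9me1 antibody, streptavidin donor and anti-rabbit IgG acceptor beads.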
Tb PGK inh – qHTS Assay to Find Inhibitors of Phosphoglycerate Kinase; Phosphoglycerate kinase, glycosomal (Trypanosoma brucei brucei), P07378; PGK/GAPDH coupled, Kinase-Glo luminescence, 60 min; Potency, µM (titrated, usually from 57.5 µM), without a hit: top-dose activity change, negative = inhibition, hits mostly inhibitors; 380,000 compounds, 0.043% hits; AID 602233, 2012; further: potency means the concentration at half of the fitted maximal effect; on the % scale 0 is the no-effect control and ±100 the full control effect; nearly all actives have a fitted effect of over 60% in size
Target sequence (P07378 whole entry, looked up): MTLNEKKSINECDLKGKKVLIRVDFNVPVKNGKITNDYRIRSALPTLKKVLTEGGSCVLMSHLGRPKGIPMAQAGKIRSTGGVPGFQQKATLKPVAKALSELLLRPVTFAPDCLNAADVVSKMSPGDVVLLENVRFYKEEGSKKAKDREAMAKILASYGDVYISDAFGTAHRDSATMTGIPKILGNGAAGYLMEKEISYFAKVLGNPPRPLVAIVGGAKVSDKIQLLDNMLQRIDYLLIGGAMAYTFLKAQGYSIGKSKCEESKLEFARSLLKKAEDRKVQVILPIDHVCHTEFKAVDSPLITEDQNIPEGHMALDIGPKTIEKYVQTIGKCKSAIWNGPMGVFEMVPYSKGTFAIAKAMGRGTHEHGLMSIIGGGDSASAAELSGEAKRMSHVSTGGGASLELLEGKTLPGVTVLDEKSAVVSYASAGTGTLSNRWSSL
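Luminescent ATP detection (Kinase-Glo Plus) follows a 60-minute room-temperature incubation, with wells lacking PGK as controls. Buffer: 100 mM TEA (pH 7.6), 5 mM MgCl2, 0.01% Tween-20. Coupling enzyme GAPDH (100 nM final) supplies unstable 1,3-BPG in-well.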
HP1b chromo inh – HTS for Inhibitors of HP1-beta Chromodomain Interactions with Methylated Histone Tails; Chromobox protein homolog 1 (Homo sapiens), P83916; AlphaScreen HP1-beta / biotin-H3K9me3 peptide binding; Potency, µM (top dose mostly 114 µM), without a hit: at the top dose activity change, negative = inhibition, most hits filed as inhibitors; 390,000 compounds, 0.56% hits; AID 540317, 2011; further: potency means the concentration at half of the fitted maximal effect; nearly all actives have a fitted effect of over 70% in size; inactives centre near 23
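AlphaScreen: HP1-beta (50 nM) preformed 30 min with biotin-H3(1-18)K9me3 peptide (50 nM) in PBS pH 7.4, 0.01% Tween-20. Compound added for 30 min at RT, then streptavidin donor/nickel chelate acceptor beads (10 ug/mL) for 30 min.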
GLS inh – qHTS for Inhibitors of Glutaminase (GLS); Glutaminase kidney isoform, mitochondrial (Homo sapiens), O94925; GLS enzymatic activity, qHTS titration; Potency, µM (titrated, usually from 45.5 µM), without a hit: at the top dose activity change, negative = inhibition, usual class: inhibitors; 410,000 compounds, 0.21% hits; AID 624170, 2012; further: potency means the concentration at half of the fitted maximal effect; on the % scale 0 is the no-effect control and ±100 the full control effect
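Two-point fluorescence kinetic (t0, 30 min RT) for hKGA; glutamate detected via glutamate oxidase–HRP–Amplex Red. Substrate: 1 mM L-glutamine solution; buffer 45 mM KH2PO4, pH 8.2.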
Pin1 inhibitor – qHTS Assay to Find Inhibitors of Pin1 | Peptidyl-prolyl cis-trans isomerase NIMA-interacting 1 (Homo sapiens), Q13526 | Pin1 FP peptide displacement, HiFluor488, 10 min | Potency, µM (titrated, usually from 115 µM), for inactives: at the top dose activity, negative = inhibition, usual class: inhibitors | 390,000 compounds, 0.009% hits | AID 504891, 2011; active means well fitted inhibition curve with a large enough effect in the polarisation, with a control signal flat, not every such curve was filed as active; inconclusive means small, poorly fitted or top-dose-only effect, or effect the other way, or a change in a side signal; inactive means no such curve, though single readings can be large or run the other way; the % refers to the polarisation; further: potency means the concentration at half of the fitted maximal effect; on the % scale 0 is the no-effect control and ±100 the full control effect
POLH inh – qHTS for Inhibitors of Polymerase Eta; recombinant Pol eta, fluorescent DNA replication assay; Potency, µM (doses to about 114 µM), without a hit: at the highest dose activity change, negative = inhibition, hits mostly inhibitors; 390,000 compounds, 1.2% hits; AID 588591, 2011; further: potency means the concentration at half of the fitted maximal effect; on the % scale 0 is the no-effect control and ±100 the full control effect
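Fluorescent replication assay: 50 nM final substrate added after a 15 min room-temperature compound preincubation with 10 nM enzyme. Signal taken at 0 min and again at 10 min.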
PI4K2A inh – qHTS for small molecular inhibitors of PI4K2A | Phosphatidylinositol 4-kinase type 2-alpha (Homo sapiens), Q9BTU6 | purified PI4K2A, ADP-Glo luminescence, 1 h; active compounds read low | activity change, negative = inhibition, % at 76.9 µM | 420,000 compounds, 0.13% hits; in the data active means activity change below about -50%; inconclusive means mostly about -30% to -49%;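 further: -100% = wells without enzyme as full effect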
Target sequence (Q9BTU6 whole entry, looked up): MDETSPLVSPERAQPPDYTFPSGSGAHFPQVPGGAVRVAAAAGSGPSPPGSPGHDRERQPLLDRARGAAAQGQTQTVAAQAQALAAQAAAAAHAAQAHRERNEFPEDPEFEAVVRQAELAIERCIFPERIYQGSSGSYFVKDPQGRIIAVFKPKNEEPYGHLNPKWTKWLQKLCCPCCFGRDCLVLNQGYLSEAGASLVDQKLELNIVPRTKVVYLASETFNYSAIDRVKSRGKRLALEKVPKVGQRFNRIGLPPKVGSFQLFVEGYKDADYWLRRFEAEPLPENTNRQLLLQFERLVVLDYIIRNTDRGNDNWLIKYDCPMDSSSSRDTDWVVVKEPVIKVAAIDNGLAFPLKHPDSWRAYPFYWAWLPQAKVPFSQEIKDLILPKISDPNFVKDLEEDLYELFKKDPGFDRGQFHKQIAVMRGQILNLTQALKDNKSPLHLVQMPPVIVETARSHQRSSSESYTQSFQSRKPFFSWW
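Compounds are screened against recombinant PI4K2A using PI as substrate and ATP, the latter dispensed at 300 microM. Reactions run one hour at ambient temperature before ADP-Glo detection; full inhibition defined by wells lacking enzyme.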
JMJD2A Tudor – qHTS Assay for Inhibitors of JMJD2A-Tudor Domain; AlphaScreen JMJD2A-Tudor / H3K4me3 peptide binding; Lysine-specific demethylase 4A (Homo sapiens), O75164; AID 504339, 2011; Potency, µM (series often up to 114 µM), without a hit: at the top dose activity change, negative = inhibition, actives largely listed as inhibitors; 390,000 compounds, 4.4% hits; further: potency means the concentration at half of the fitted maximal effect; on the % scale 0 is the no-effect control and ±100 the full control effect; nearly all actives have a fitted effect of over 50% in size
Active calls of the source: *; i = inactive; ? = inconclusive; . = not tested or not shown; [ ] = remark or other dose. Unless noted, the call rests on the fitted dose curve; in most records, active means well fitted curve in the direction sought with a large enough effect; inconclusive means small, poorly fitted or top-dose-only effect, or another doubt; inactive means no such curve, though single readings can be large; an effect the other way counts as inactive or inconclusive. Only part of the results is shown; rates above refer to the full screens.

No.	G9a inh	Tb PGK inh	HP1b chromo inh	GLS inh	Pin1 inhibitor	POLH inh	PI4K2A inh	JMJD2A Tudor	Compound
1	-51%	-4%	-15%	2%	1%	-7%	-1	?	COc1cc(NC(=O)C2CCCCC2)c(OC)cc1NC(=O)CN1CCCCC1
2	4µM*	-3%	10%	-2%	3%	-11%	-1	?	O=C(COc1ccccc1[N+](=O)[O-])N/N=C/c1ccccn1
3	16%	-9%	33%	-1%	9%	-7%	9	7%	Cc1noc(C)c1CSc1nnc2sc3ccccc3n12
4	.	2%	10%	-3%	0%	2%	0	-13%	CCN(CC(=O)Nc1ccc(C(=O)OC)cc1)Cc1ccccc1
5	-23%	-15%	-5%	13%	?	?	-6	?	Cc1cccc(-n2ccc(=O)c(C(=O)Nc3ccc(S(=O)(=O)Nc4nccs4)cc3)n2)c1
6	56%[activator][59 µM]	.	35%	-7%	3%	3%	-4	-31%	Cc1ccc(C(=O)N/N=C\C=C\c2ccc(Br)cc2)cn1
7	.	-8%	1%	-1%	4%	-4%	1	-18%	C=Cn1c(C(=O)O)ccc1-c1ccc(CC)cc1
8	27%	-9%	55%[activator]	6%	3%	-16%	5	1%	Clc1cccc(Nc2ncnc3c2cnn3-c2ccccc2)c1
9	-1%	-5%	18%	2%	0%	-1%	-2	?	CCCCCC/C=N/Nc1nnc(Cc2ccccc2)c(=O)[nH]1
10	119%[activator]	4%	167%[activator]	2%	16%	-18%	0	79%[activator]	COC(=O)c1cc2ccsc2n1Cc1ccccc1F
11	-2%	-1%	12%	2%	1%	-10%	0	1%	Cc1ccc(C)c(N(CC(=O)NCCC2=CCCCC2)S(C)(=O)=O)c1
12	-2%[0.501 µM]	.	.	.	.	.	.	.	Cc1ccc(SCC(=O)NC(=O)NCc2ccco2)cc1C
13	50µM*	16%	?	2%	0%	-10%	-1	?	O=c1c2ccccc2c(C=NCCCN2CCOCC2)c(O)n1Cc1ccc2c(c1)OCO2
14	-37%	i	62%[activator]	2%	0%	-13%	-12	?	COc1cc(-c2nnc(NC(=O)CCS(=O)(=O)c3ccccc3)o2)cc(OC)c1OC
15	50µM*	7%	-3%	-1%	0%	-21%	2	-28%	Cc1ccc(/C=C/C(=O)OCc2nc(N)nc(Nc3ccccc3C)n2)o1
16	-7%	3%	36%	-1%	1%	0%	-1	6%	O=C(/C=C/c1ccc(S(=O)(=O)N2CCOCC2)cc1)NCCCn1ccnc1
17	.	i	10%	5%	1%	-18%	-2	?	O=[N+]([O-])c1cccnc1Oc1ccc(C2SCCS2)cc1
18	.	-9%	24%	5%	-1%	-22%	4	?	O=[N+]([O-])c1cc([N+](=O)[O-])c(Oc2ccc(Cl)c3cccnc23)cc1NN1CCCCC1
19	7.9µM*	1%	33%	0%	-7%	-3%	2	?	COc1cccc(CCc2nnc(CCC(=O)N3CCN(Cc4ccccn4)CC3)o2)c1
20	30%	-4%	28%	0%	0%	-12%	-2	-14%[11.4 µM]	Nc1nn(S(=O)(=O)c2ccccc2)cc1-c1cccc([N+](=O)[O-])c1
21	23%[59 µM]	4%	-17%	16%	1%	-20%	-3	?	COc1ccc(/C(C)=N/NC(=S)NCc2ccco2)cc1
22	25µM*	-5%	?	-13%	-14%	-11%	4	?	CC(=O)c1ccc(OCCN2CCOCC2)cc1
23	3%[59 µM]	-2%	24%	-7%	7%	-9%	12	1%	NS(=O)(=O)c1ccc(CCNC(=O)CCCn2ncn3c(cc4occc43)c2=O)cc1
24	50µM*	-1%	-2%	-1%	2%	-31%	0	?	O=C1N=c2ccccc2=C1c1sc(NS(=O)(=O)c2ccccc2)nc1O
25	11µM*	i	-2%	15%	1%	-12%	0	?	CC(C)CC(=O)NC(=S)Nc1ccccc1N1CCCC1
26	11%	0%	21%	15%	-9%	-16%	9	-4%	CCCCCCN=CC1=C(O)C(C(=O)OC)C(C)(C)CC1=O (configuration not stated)
27	?	1%	9%	3%	67%[activator]	-27%	2	-19%	CCOc1ccc(NC(=O)Cc2cccc3ccccc23)c([N+](=O)[O-])c1
28	?	-3%	-16%	0%	-7%	-18%	-3	?	CCN(CC)S(=O)(=O)c1cc(NC(=O)c2ccc(-n3cncn3)c([N+](=O)[O-])c2)ccc1C
29	12%[59 µM]	8%	31%	8%	-1%	-3%	-1	-17%	COC(=O)c1nc2n(n1)C(c1cc(OC)ccc1OC)C(C(=O)Nc1ccc(C)cc1C)=C(C)N2 (configuration not stated)
30	20µM*	-6%	-27%	11%	14%	-4%	-4	?	CCCOC(=O)/C(=C\C=C\c1ccco1)NC(=O)c1ccccc1
31	20%[0.501 µM]	-10%	5%	2%	-4%	-2%	-2	-25%	Cc1ccc(-c2nn3c(C)nnc3c3ccccc23)cc1S(=O)(=O)NCc1ccccc1
32	10%[59 µM]	7%	10%	-5%	-11%	-9%	5	-24%	COc1cccc(C(=O)N/N=C(/c2ccccc2)c2ccccn2)c1
33	-44%[59 µM]	-15%	-4%	-21%	?	?	2	?	Cc1nc2sc3c(c2c2nnc(SCC(=O)NCc4ccco4)n12)CCCC3
34	50µM*	11%	?	6%	-1%	-11%	1	?	COc1ccc(CCNc2ccc(S(=O)(=O)N3CCN(C)CC3)cc2[N+](=O)[O-])cc1
35	13%	13%	22%	3%	1%	-10%	-2	-21%	O=C(O)c1cnn2c(-c3ccc(F)cc3)ccnc12
36	7.9µM*	-1%	-20%	0%	-2%	-2%	1	?	Cc1ccc2nc(-c3c[nH]c4ccccc34)c(Nc3ccccc3)n2c1
37	?	-2%	28%	-4%	?	?	-4	?	COc1ccccc1-c1nnc(NC(=O)c2ccc3ncsc3c2)o1
38	?	-7%	14%	15%	?	8%	-2	?	O=C(O)CCC(NS(=O)(=O)c1ccc(-c2ccccc2)cc1)C(=O)O (configuration not stated)
39	-26%[59 µM]	10%	-3%	-12%	0%	-16%	-1	?	COc1ccc(OC)c2sc(N(Cc3cccnc3)C(=O)c3ccc(C(C)=O)cc3)nc12
40	3.5µM*	-3%	?	-7%	-4%	-11%	-6	?	Cc1cccc(N2C(=O)SC(SC(=Nc3ccccc3)Nc3ccccc3)C2=O)c1 (configuration not stated)
41	.	-2%	24%	-1%	0%	4%	1	-15%	CC(CNC(=O)CCCn1ncn2c(cc3occc32)c1=O)c1ccccc1 (configuration not stated)
42	10%[59 µM]	-10%	22%	2%	-3%	-19%	-1	-7%	O=C(NC1(C(F)(F)F)C(=O)Nc2c1c(=O)[nH]c(=O)n2-c1ccc(F)cc1)c1ccccc1 (configuration not stated)
43	2%	-11%	17%	0%	45%[activator]	0%	-3	-27%	Cc1nc2ccccc2c2oc(C(=O)Nc3ccc4c(c3)OCCO4)cc12
44	32%[59 µM]	10%	72%	4%	9%	-16%	0	15%	Cc1ccc(S(=O)(=O)N(CC(=O)NCCC2=CCCCC2)Cc2ccccc2)cc1
45	.	8%	14%	25%	-10%	-12%	2	-27%	Cc1nc(CN(C)C(=O)CC2C(=O)NCCN2Cc2ccc(-c3ccccc3)cc2)cs1 (configuration not stated)
46	2%	-6%	17%	2%	0%	-19%	-1	-22%	Cc1ccc(NC(=O)C2=C(O)CCn3c2nc2ccccc23)cc1
47	.	1%	21%	14%	-2%	?	1	-23%	COc1cccc(NC(=O)C(=O)c2cn(CC(=O)N3CCCC3)c3ccccc23)c1
48	13µM*	0%	-24%	7%	-1%	-23%	1	?	N#Cc1nc(-c2ccc(COc3ccccc3)o2)oc1NCc1cccnc1
49	?	-8%	-19%	8%	-9%	-29%	-1	?	COc1ccc(/C=N/N(c2ccccc2)c2ccccc2)cc1O
50	-24%[59 µM]	-2%	-35%	11%	?	3%	-4	?	O=[N+]([O-])c1nn(-c2ccc3c(c2)OCCO3)n(O)c1=NC1CCCCC1
51	?	7%	-19%	?	-1%	?	2	?	CCOC(=O)c1c(NC(=O)C(NCCN(C)C)c2ccccc2)sc2c1CCCC2 (configuration not stated)
52	.	-3%	-22%	24%	?	-4%	0	?	O=C(CCc1ccccc1)NC(=S)Nc1ccccc1[N+](=O)[O-]

5 compounds out of the list, sorted by number of heavy atoms, falling.
No.	G9a inh	Tb PGK inh	HP1b chromo inh	GLS inh	Pin1 inhibitor	POLH inh	PI4K2A inh	JMJD2A Tudor	Compound
51	?	7%	-19%	?	-1%	?	2	?	CCOC(=O)c1c(NC(=O)C(NCCN(C)C)c2ccccc2)sc2c1CCCC2 (configuration not stated)
41	.	-2%	24%	-1%	0%	4%	1	-15%	CC(CNC(=O)CCCn1ncn2c(cc3occc32)c1=O)c1ccccc1 (configuration not stated)
50	-24%[59 µM]	-2%	-35%	11%	?	3%	-4	?	O=[N+]([O-])c1nn(-c2ccc3c(c2)OCCO3)n(O)c1=NC1CCCCC1
46	2%	-6%	17%	2%	0%	-19%	-1	-22%	Cc1ccc(NC(=O)C2=C(O)CCn3c2nc2ccccc23)cc1
52	.	-3%	-22%	24%	?	-4%	0	?	O=C(CCc1ccccc1)NC(=S)Nc1ccccc1[N+](=O)[O-]

Screening results: PubChem, National Center for Advancing Translational Sciences (NCATS)
